# LASV entry inh – qHTS for Inhibitors of binding or entry into cells for Lassa Virus; Potency, µM (top dose mostly 37.9 µM), for inactives: top-dose activity change, negative = inhibition, usual class: inhibitors; 300,000 tested, 1.2% active; Lassa virus pseudotype entry inhibition, cell reporter; control for the full effect not named in the record; AID 540256, 2011; active means well fitted inhibition curve with a large enough effect; inconclusive means small, poorly fitted or top-dose-only effect, or effect the other way; inactive means flat fitted curve, though single readings scatter; tested in HEK293 cells; note: % is set by controls: 0 for no effect and ±100 for the full control effect; nearly all actives have a fitted effect of over 50% in size; luciferase read-out
# RE007 growth inh – qHTS Assay for Inhibitors of the HIV-1 protein Vpr; Potency, µM (titrated, usually from 92.2 µM), for inactives: at the top dose activity change, negative = less growth; S. pombe RE007 Vpr strain, BacTiter-Glo ATP luminescence, 24 h; control for the full effect not named in the record; AID 651644, 2012; 360,000 tested, 0.21% active; active = well fitted falling curve with a large enough effect; inconclusive = small, poorly fitted or top-dose-only effect; inactive = no such curve, though single readings can be large or run the other way;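 note: % is set by controls: 0 for no effect and ±100 for the full control effect; nearly all actives have a fitted effect of over 50% in size; the assay follows cell death caused by Vpr and the record does not say whether a fall means rescue or toxicity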
#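 Fission yeast strain RE007, carrying one chromosomally integrated HIV-1 vpr copy, was seeded at OD 0.01 in PMG+AL medium with 23 nL pinned compound. After 24 h at 30 °C and 99% humidity, viability was read by BacTiter-Glo luminescence.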
# Cruzain Triton – qHTS Assay for Promiscuous and Specific Inhibitors of Cruzain (with detergent). Cruzipain (Trypanosoma cruzi), P25779. purified cruzain, Z-FR-AMC fluorescence, 0.01% Triton. Potency, µM, for the others: max response, negative = inhibition, actives largely listed as inhibitors. 200,000 tested, 0.43% active;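 note: plate controls were neutral wells for no effect and buffer without enzyme for full effect; nearly all actives have a fitted effect of over 40% in size; top concentration of the series not given in the record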
# Target sequence (P25779 123-467 limits assumed): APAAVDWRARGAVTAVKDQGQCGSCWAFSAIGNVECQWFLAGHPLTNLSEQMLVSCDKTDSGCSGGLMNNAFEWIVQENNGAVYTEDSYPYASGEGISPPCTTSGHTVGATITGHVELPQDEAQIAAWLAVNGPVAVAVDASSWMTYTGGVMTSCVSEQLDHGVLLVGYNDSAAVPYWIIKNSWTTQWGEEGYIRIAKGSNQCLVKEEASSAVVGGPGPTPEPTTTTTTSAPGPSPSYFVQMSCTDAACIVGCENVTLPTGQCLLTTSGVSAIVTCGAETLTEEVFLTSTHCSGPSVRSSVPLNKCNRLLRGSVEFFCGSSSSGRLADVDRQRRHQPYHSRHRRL
#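 Enzyme 1.5 nM, Z-FR-AMC 2 uM, NaOAc 100 mM pH 5.5, DTT 5 mM, Triton X-100 0.01%; 15 min RT compound preincubation; kinetic ex360/em450, 60 s delta.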
# Marburg entry inh – qHTS for inhibitors of binding or entry into cells for Marburg Virus | Marburg virus pseudotyped entry inhibition, cell reporter; control for the full effect not named in the record; about a third of the inactives were read at about 46 µM | Potency, µM (highest dose often 37.8 µM), inactives show top-dose activity change, negative = inhibition, most hits filed as inhibitors | 300,000 tested, 1.8% active | AID 540276, 2011; active = well fitted inhibition curve with a large enough effect; inconclusive = small, poorly fitted or top-dose-only effect, or effect the other way; inactive = flat fitted curve, though single readings scatter; tested in HEK293 cells; about a fifth of its hits are not listed in these tables; note: % is set by controls: 0 for no effect and ±100 for the full control effect; luciferase read-out
# StopGo reporter – High Throughput Screening for Foot and Mouth Disease Virus Antivirals. human cells with a luciferase reporter of 2A StopGo recoding; control for the full effect not named in the record. Potency, µM (top dose mostly 57.9 µM), without a hit: at the highest dose signal change, negative = less light. 410,000 tested, 1.2% active. AID 1159524, 2015; active = well fitted falling curve with a large enough effect; inconclusive = small, poorly fitted or top-dose-only effect; inactive = no such curve, though single readings can be large or run the other way; tested in HEK293T cells; note: % is set by controls: 0 for no effect and ±100 for the full control effect; nearly all actives have a fitted effect of over 45% in size; luciferase light after 4 h
# Cruzain noTriton – qHTS Assay for Promiscuous and Specific Inhibitors of Cruzain (without detergent) | Cruzipain (Trypanosoma cruzi), P25779 | purified cruzain, Z-FR-AMC fluorescence, no detergent | Potency, µM, inactives show max response, negative = inhibition, actives largely listed as inhibitors | 200,000 tested, 2.3% active | AID 1476, 2009;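 note: plate controls were enzyme without inhibitor for no effect and buffer without enzyme for full effect; nearly all actives have a fitted effect of over 40% in size; top concentration of the series not given in the record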
#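 Purified cruzain at 1.5 nM, pre-incubated 15 min with compound at room temperature in 100 mM sodium acetate pH 5.5, 5 mM DTT, 0.00005% Triton X-100. Reaction started with 2 uM Z-FR-AMC; AMC fluorescence increase over 60 s gives rate.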
# NS1 function inh – qHTS Assay for Inhibitors of Influenza NS1 Protein Function. S. cerevisiae slowed by influenza A NS1, growth recovery by OD600. Potency, µM (titrated, usually from 46.1 µM), inactives show top-dose activity, positive = more growth. 270,000 tested, 0.4% active; active means well fitted rising curve with a large enough effect; inconclusive means small, poorly fitted or top-dose-only effect; inactive means no such curve, though single readings can be large or run the other way; note: nearly all actives have a fitted effect of over 50% in size
#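 Growth recovery, yeast-based: influenza A NS1 expressed in S. cerevisiae causes slow growth, and suppressors are detected by OD600. The parent strain without NS1 is used as positive control.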
# SARS PLP yeast – qHTS of Yeast-based Assay for SARS-CoV PLP | S. cerevisiae expressing SARS-CoV PLpro, growth rescue; control for the full effect not named in the record | Potency, µM (series often up to 32.9 µM), inactives show top-dose activity, positive = growth rescue | 330,000 tested, 0.19% active | AID 485353, 2010; active means well fitted rising curve with a large enough effect; inconclusive means small, poorly fitted or top-dose-only effect; inactive means no such curve, though single readings can be large or run the other way; note: 0% is about no effect; nearly all actives have a fitted effect of over 55% in size; growth read by luminescence after 48 h
# * = called active by the depositor; u = inconclusive; x = not tested or not shown; & = joins results of further samples; [ ] = remark or other dose. Unless noted, calls come from the whole dose curve; as a rule, active = well fitted curve in the direction sought with a large enough effect; inconclusive = small, poorly fitted or top-dose-only effect, or another doubt; inactive = no such curve, though single readings can be large; an effect the other way counts as inactive or inconclusive. Potency is the fitted concentration of half-maximal effect.
mol	LASV entry inh	RE007 growth inh	Cruzain Triton	Marburg entry inh	StopGo reporter	Cruzain noTriton	NS1 function inh	SARS PLP yeast
Nc1nc(-c2ccc3c(c2)OCCO3)cs1	7.4%	-13.4%	1.3%	-15.8%	33.9%[activator]	-4.7%	-31.8%	-9.3%
COc1ccc(S(=O)(=O)NCCc2sc3nc(-c4ccc(C)cc4)nn3c2C)cc1C	-33.7%[46.1 µM]	x	-6.5%	x	4.4%	u	x	x
Cc1ccc(CCNC(=O)c2nnc(Cc3cccc(F)c3)o2)cc1	-8.3%[46.1 µM]	x	-3.2%	x	-3.3%	u	x	x
CCOC(=O)c1c(NC(=O)Cn2cnc([N+](=O)[O-])n2)sc2c1CCC(C)C2 (stereo not given)	-2.7%	4.4%	-4.8%	-9.2%	-15.9%	0.3%	u	1.7%
CCOC(=O)Cn1c(CN2CCN(C(c3ccccc3)c3ccccc3)CC2)nc2c1c(=O)n(C)c(=O)n2C	x	6.2%	1.5%	x	-19.0%	u	1.3%	-7.8%
CCOC(=O)c1c(C)oc2c1c(C(c1cccnc1)N1CCOCC1)c(O)c1ccccc12 (stereo not given)	-4.3%	9.2%	-8.5%	15.5%	u	u	-6.1%	-36.4%
O=C(CSc1c2c(nc3ccc(Cl)cc13)CCCC2)NCc1ccccc1Cl	-0.4%[46.1 µM]	x	-0.6%	4.8%[46.1 µM]	-3.0%	-3.0%	x	x
COC(=O)CCN(C(=O)c1ccc(C)c([N+](=O)[O-])c1)c1ccccn1	u	14.6%	x	9.0%[46.1 µM]	6.7%	x	x	0.6%
COc1ccc(CCNc2oc(-c3ccc(OC)c(OC)c3)nc2C#N)cc1	-32.0%	7.1%	-23.1%	24.4%	-3.2%	u	-76.0%	-4.9%
CN1CCN(S(=O)(=O)c2cccc(C(=O)Nc3cc(C(F)(F)F)ccc3N3CCCC3)c2)CC1	12.6%	2.6%	x	-28.3%	-5.9%	x	x	-1.9%
CCOC(=O)Cn1nc(C)c(NC(=O)COc2ccc([N+](=O)[O-])cc2)c1C	28.0%	-20.2%	x	-5.8%[46.1 µM]	-9.1%	x	x	-2.5%
NC(=O)C1CCN(C(=O)c2cc3ccccc3cc2O)CC1	17.0%[46.1 µM]	13.8%	x	-1.3%	42.8%[activator]	x	x	x
O=C(COC(=O)c1ccco1)Nc1nc2c(F)c(F)c(F)cc2s1	-1.1%[46.1 µM]	10.2%	x	5.0%[46.1 µM]	-6.3%	x	-8.4%	-2.2%
Cc1ccc2c(CC(=O)NCCc3ccc(S(N)(=O)=O)cc3)coc2c1	-11.9%	-14.6%	x	3.9%	9.4%	x	u	-1.1%
O=C(Cn1c(=O)[nH]c2ccccc2c1=O)Nc1cccnc1	x	-3.5%	x	x	-5.9%	x	-11.1%	-0.6%
CCCCSCCCNC(=O)c1c[nH]c2ccc(S(=O)(=O)Nc3cccc(OC)c3)cc2c1=O	u	x	-1.5%	x	-11.7%	u	x	x
Cc1c([N+](=O)[O-])c(C(=O)NC2CCCC2)nn1C	x	-6.2%	x	x	-19.7%	x	0.9%	-0.8%
CC(=O)N1CCC(=NNC(=O)c2cc3ccccc3cc2O)CC1	x	-3.6%	x	x	0.5%	x	20.6%	-3.8%
CSCC[C@H](NC(=O)OC(C)(C)C)C(=O)N1CCC(C(=O)N[C@@H](C)C(=O)NC(C)c2ccccc2)CC1 (stereo not given in full)	x	-8.6%	x	x	-16.3%	x	-0.6%	4.8%
O=C(Nc1nccs1)C12CC3CC(C1)CC(C(=O)Nc1nccs1)(C3)C2	-18.4%	5.3%	-1.4%	u	25.1µM*	-1.5%	4.6%	5.1%
CCCCOC(=O)c1ccc(NC(=O)C(CCS(C)(=O)=O)NC(C)=O)cc1 (stereo not given)	-5.3%	15.3%	-2.9%	u	-7.8%	6.3%	0.5%	11.6%
C=Cc1ccc(C(=O)N2CCCC(CCC(=O)N3CCN(c4ccccn4)CC3)C2)cc1 (stereo not given)	x	-7.2%	x	x	1.8%	x	-1.7%	u
CCN(CC)S(=O)(=O)c1cccc(-c2nnc(C(=O)c3ccc(C(F)(F)F)cc3)o2)c1	-36.6%	8.6%	-2.3%	-0.9%&3.6%	x	-3.1%	10.4%	6.5%
CC(N)Cc1ccccc1Sc1ccc(O)cc1 (stereo not given)	x	x	-1.3%	-3.7%	x	-4.3%	-5.3%	3.6%
Cc1nc(Nc2ccccc2F)c2nnn(Cc3ccccc3Cl)c2n1	x	4.0%	x	x	18.5%	x	0.2%	1.5%
COCc1cc(C)nc(N2CCCCC2)c1C#N	-12.0%	-19.7%	-3.9%	0.6%	1.1%	8.1%	4.1%	-9.2%
CCCn1c(SC(C)C(=O)NCC2CCCO2)nc2cc(Cl)ccc2c1=O (stereo not given)	-27.6%[46.1 µM]	-9.0%	x	-2.7%	u	x	x	x
O=C(Nc1nc(-c2ccc(F)c(F)c2)cs1)Nc1ccc(F)cc1F	x	4.6%	x	x	-3.5%	x	3.1%	1.4%
O=C(NN1CCOCC1)c1ccccc1	3.9%[46.1 µM]	-5.9%	x	1.7%[46.1 µM]	-11.8%	x	-5.6%	3.8%
COc1ccc(NC(=O)C(c2ccccc2)N(C)C(=O)/C=C\c2ccc3c(c2)OCO3)cc1 (stereo not given)	u	x	-6.5%	u	-28.3%	-13.1%	x	x

# Single records, from the list above. Order of values: LASV entry inh, RE007 growth inh, Cruzain Triton, Marburg entry inh, StopGo reporter, Cruzain noTriton, NS1 function inh, SARS PLP yeast
# Cc1ccc(CCNC(=O)c2nnc(Cc3cccc(F)c3)o2)cc1 reads -8.3%[46.1 µM], x, -3.2%, x, -3.3%, u, x, x
# Cc1c([N+](=O)[O-])c(C(=O)NC2CCCC2)nn1C reads x, -6.2%, x, x, -19.7%, x, 0.9%, -0.8%

# Later entries:
mol	LASV entry inh	RE007 growth inh	Cruzain Triton	Marburg entry inh	StopGo reporter	Cruzain noTriton	NS1 function inh	SARS PLP yeast
COc1cc(Cl)ccc1OCc1cc(C(=O)N2CCC(N(C)C)C2)no1 (stereo not given)	x	-2.1%	x	x	-8.6%	x	-1.5%	2.5%
Cc1ccc2c(c1)C1CN(C)CCC1N2C(=S)Nc1ccc(Cl)cc1Cl (stereo not given)	u	-4.2%	x	u	u	x	x	-3.1%
Cc1ccc(C)c(CN2CCCN(CC(=O)Nc3ccc(C)c(C)c3)S2(=O)=O)c1	-19.9%[46.1 µM]	x	-5.7%	x	-14.2%	8.5%	x	x
COc1ccccc1NC(=O)Cn1cnc2c1c(=O)n(C)c(=O)n2C	0.1%	-9.9%	3.4%	-20.5%	-5.7%	-0.3%	6.3%	3.7%
CCn1c(CC(=O)Nc2ccc(Cl)c(Cl)c2)nnc1SCc1ccc(Cl)cc1	23.7%	15.4%	-1.0%	-0.7%	-22.4%	-7.6%	-4.6%	9.8%
Cc1cc(C)cc(NC(=S)NCC2CCN(C(C)c3ccccc3)C2)c1 (stereo not given)	-22.2%[46.1 µM]	-3.0%	x	u	-14.6%	x	x	-2.1%
Cc1ccc(C(C)NC(=O)c2ccc3c(c2)OCCO3)cc1C (stereo not given)	u	18.2%	x	u	-14.1%	x	-18.0%	0.1%
CCc1nc(SCC(=O)Nc2ccccc2Cl)n[nH]1	29.6%	-12.5%	x	20.2%[46.1 µM]	-9.4%	x	-4.5%	2.6%
N#Cc1c(C#N)c(O)c2ccccc2c1O	x	-14.0%	x	x	3.7%	x	-6.6%	-0.5%
CCc1ccc(NC(=O)c2cnc3c(-c4ccccc4)c(C)nn3c2C)cc1	2.7%[46.1 µM]	x	-6.5%	x	-13.0%	-21.2%	x	x
CCOC(=O)C(Cc1ccccc1)NC(=O)CCCC(=O)c1ccccc1 (stereo not given)	x	18.1%	x	x	6.3%	x	-52.3%	-4.5%
CCC(=O)Nc1ccc(/C=C(\C(C)=O)C(=O)c2ccccc2)cc1	-28.0%	-10.6%	x	14.7%	28.2µM*	x	-4.7%	0.2%
CCN(Cc1nc2ccccc2c(=O)[nH]1)C(=O)COc1ccccc1Cc1ccccc1	u	1.8%	x	u	u	x	x	-2.9%
C=CCn1c(SCC(=O)c2cc(C)n(CC3CCCO3)c2C)nnc1-c1ccccc1 (stereo not given)	20.2%	8.5%	-3.7%	4.4%	-18.6%	-2.6%	0.5%	3.0%
Cn1c(SCC(=O)Nc2ccc(Cl)cc2)nnc1C1CC1	u	14.5%	x	-1.8%[46.1 µM]	-5.1%	x	-1.7%	2.4%
COc1ccc(OCC(=O)NCc2nc(-c3ccccc3)no2)cc1	1.5%	-2.1%	x	4.6%[46.1 µM]	-12.1%	x	x	x
O=c1[nH]c(-c2cccs2)nc2ccccc12	5.0%	-7.2%	2.2%	-9.9%[46.1 µM]	40.7%[activator]	-18.2%	-47.3%	-0.6%
CN1CCN(CCC(=O)N2c3ccccc3Sc3ccc(Cl)cc32)CC1	-23.2%	-0.6%[3.69 µM]	-2.8%	u	-15.7%	5.0%	6.7%	-2.9%
Cc1nc(C(F)(F)F)c(C(=O)N=CN(C)C)s1	-13.0%	-15.6%	x	u	-10.2%	x	0.1%	17.8%
COc1ccc(Br)cc1/C=N/Nc1ccccn1	x	-3.0%	x	x	-12.0%	x	-1.5%	1.5%
CCCCc1ccc(NC(=O)c2cccn(Cc3ccc(Cl)cc3)c2=O)cc1	4.3%[46.1 µM]	x	1.0%	x	0.0%	-7.8%	x	x
COP(=S)(OC)Oc1ccc(SC)c(C)c1	16.7%	-8.2%	0.5%&-2.9%	1.1%	-2.2%&10.3%	8.8%&-5.3%	x	x

# Screening data from PubChem BioAssay.
